Anthrax LT inh = anthrax lethal toxin internalization inhibition. Cells, anthrax lethal toxin internalization, FRET ratio (460/530). Potency, µM (series often up to 40 µM), without a hit: top-dose activity change, negative = inhibition, hits mostly inhibitors. 70,000 compounds, 0.67% hits. AID 912; active = well fitted falling ratio curve with the 530 nm signal flat; inconclusive = other ratio curves, or a change in one channel alone; inactive = flat curves in the ratio and both channels; the % refers to the ratio; also: % is scaled to controls: 0 for no effect and ±100 for the full control effect; nearly all actives have a fitted effect of over 50% in size; tested in ME-180 cells; beta-lactamase reporter
Prx2 Sm inh = blocks S. mansoni peroxiredoxin 2 enzymatic activity. S. mansoni Prx2 activity coupled to TGR/GSH (TGR is thioredoxin glutathione reductase), NADPH fluorescence loss, qHTS; some inactives read as strong as hits. Potency, µM. 65,000 compounds, 0.07% hits. AID 448; active means full or partial inhibition curve with a strong effect at the top dose; inconclusive means weaker partial or single-point curve; inactive means no accepted curve; also: series up to 57 µM; many of its hits are not listed in these tables
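Enzyme mix: 100 uM NADPH, 25 nM TGR, 700 uM GSH, 50 nM Prx2 in 100 mM phosphate pH 7.4, 10 mM EDTA, 0.01% Tween-20. 15 min RT with compound; NADPH/GSH added, H2O2 starts reaction; NADPH fluorescence read 8 min.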
Starred values were filed as active, the others as inactive; i = inactive; ? = inconclusive; . = not tested or not shown; & = joins results of further samples; [ ] = another dose, or the depositor's remark. Potency is read from the fitted curve at half-maximal effect. Not all compounds are listed; rates above refer to the full screens.

SMILES	Anthrax LT inh	Prx2 Sm inh
COc1ccc(CN2CN(C(C)C)CSC2=S)cc1	?	>57
COc1ccc(-c2noc(-c3ccccc3C(=O)Nc3cccc(OC)c3)n2)cc1	-22%	>57
COc1ccc(C2CC(=O)c3c([nH]c(C(=O)OC(C)C)c3C)C2)cc1OC (centres undefined)	?	>57
CC(=O)OC1CC(C)OC(C)O1 (centres undefined)	1%	.
CCOc1cc2[nH]c(=O)n(CCC(=O)N3CCN(c4ccccc4OC)CC3)c(=O)c2cc1OCC	-4%	>57
CCN(CCCNC(=O)CN(C)S(=O)(=O)c1ccc2c(c1)CCC(=O)N2)c1cccc(C)c1	-2%	>57
c1ccc(CCn2nnnc2CN2CCc3ccccc32)cc1	-18%	>57
CC1(C)Oc2ccc(C(=O)NC3CCCC3)cc2N(CC(=O)NC2CCCC2)C1=O	4%	>57
CCOc1ccccc1N(C(=O)c1ccco1)C(C(=O)NC1CCCC1)c1cccnc1 (centres undefined)	-2%	>57
COc1ccc(OC)c(S(=O)(=O)n2nnc3ccccc32)c1	20%	.
COc1cccc(Cn2c(=O)c(-c3cccs3)nc3cnc(OC)nc32)c1	?	>57
CCN(CC)CC(=O)c1ccc(-c2ccccc2)cc1	?	>57
O=C1NC(=O)C2(Cc3ccccc3N3CCCC32)C(=O)N1c1ccc(Cl)cc1 (centres undefined)	3%	>57
CCCCC[C@H](O)/C=C\[C@@H]1[C@H](O)CC(=O)[C@@H]1CCCCCCC(=O)O	10%[3.58 µM]	>57
Cc1c(C(=O)O)nc(/C=C\C(=O)O)[nH]c1=O	-7%[8 µM]	>57
CCN(CC(=O)NCc1cccs1)c1ccc(S(=O)(=O)N2CCOCC2)cn1	-1%	>57
CCCCN(Cc1cc2cc(OC)ccc2[nH]c1=O)C(=O)c1ccccn1	?	>57
COc1cccc(Nc2ncc3nc(-c4ccccc4)c(=O)n(C)c3n2)c1	?	>57
COc1cccc(OCC(=O)NC2CCCCC2)c1	0%	>57
CCOC(=O)C1=C2N(C)c3ccccc3N2CCC1=O	-3%	.
O=C(c1cc(C(F)(F)F)cc(C(F)(F)F)c1)N1CCC[C@@]2(CCN(Cc3ccccc3)C2)C1	?	>57
CC(C)Cn1c(SCc2nnc(-c3cccs3)o2)nc(O)cc1=O	0%	>57
O=C(CSc1nc2nc(-c3cccs3)cc(C(F)(F)F)c2c(=O)[nH]1)NCc1ccco1	13%	>57
CC(C)CO/N=C1/C[C@@H](O)[C@@H](O)[C@@H]2[C@@H]3C(=O)N(C(C)(C)C)C(=O)[C@H]3CC[C@H]12	4%[8 µM]	.
COc1ccc(S(=O)(=O)Cc2ccc(C(=O)N3CCN(c4ncccn4)CC3)o2)cc1	2%	>57
COc1c(S(=O)(=O)N2CCCC2)ccc(Cl)c1Cl	3%	>57
O=C(CCCCn1c(=O)[nH]c2ccccc2c1=O)NCCC1=CCCCC1	10%	>57
Cc1ccc2nsnc2c1S(=O)(=O)N1CCCC1	-4%	>57
CCc1nc(N)c(C#N)c(-c2cccn2C)c1C	-5%	>57
Cc1c(C(=O)NCCCN2CCCC2=O)oc2ccc(S(=O)(=O)N3CCOCC3)cc12	3%	>57
COc1ccc(OC)c(C2C(C(C)=O)=C(O)C(=O)N2CCC(=O)O)c1 (centres undefined)	-12%	>57
Cc1cc(C(=O)OCC(=O)Nc2ccc(F)cc2)c(C)o1	?	>57
CC(C)(C)N1C(=O)c2ccc(C(=O)O)cc2C1=O	-6%	>57
O=C(COc1ccc2c(c1)CCC2)N1CCc2ccccc21	-9%	>57
O=C(C1CCCN(S(=O)(=O)c2cccs2)C1)N1CCC(N2CCCCC2)CC1 (centres undefined)	8%	>57
CCn1c2ccccc2c2nnc(SCN3C(=O)c4ccccc4C3=O)nc21	-16%	.
O=S(=O)(c1cccc(-n2cnnn2)c1)N1CCOCC1	-2%	>57
COc1cc(C)c2occ(/C(C)=N\O)c2c1	-12%	.
COCCn1nnnc1C(c1ccc(OC)c(OC)c1)N1CCc2ccccc21 (centres undefined)	-4%	>57
O=C(CCSc1ccccc1)NCC1CCCO1 (centres undefined)	1%	>57

Nothing new here: four of the compounds above.
SMILES	Anthrax LT inh	Prx2 Sm inh
COc1ccc(OC)c(C2C(C(C)=O)=C(O)C(=O)N2CCC(=O)O)c1 (centres undefined)	-12%	>57
Cc1cc(C(=O)OCC(=O)Nc2ccc(F)cc2)c(C)o1	?	>57
CC(C)(C)N1C(=O)c2ccc(C(=O)O)cc2C1=O	-6%	>57
O=C(COc1ccc2c(c1)CCC2)N1CCc2ccccc21	-9%	>57

Carrying on:
SMILES	Anthrax LT inh	Prx2 Sm inh
O=C(c1cc(C2CC2)on1)N1CCN(c2ccc(F)cc2)CC1	-3%	>57
Cc1ccc2cc(-c3noc(C4CCCCC4)n3)c(=O)[nH]c2c1	-8%	>57
O=C(CSc1n[nH]c(-c2ccc(S(=O)(=O)N3CCCCC3)cc2)n1)Nc1nccs1	-19%	>57
CCOCC(=O)Nc1cc(OC)c(Cl)cc1OC	-20%	>57
O=C(CN1C(=O)C2(OCCO2)c2ccccc21)c1ccc(Br)cc1	-28%	>57
COc1ccc(NC2CC(=O)N(c3cccc(C)c3)C2=O)cc1 (centres undefined)	0%	>57
CCOC(=O)Cn1nnnc1CN(Cc1ccc(OC)cc1)Cc1cc2cc(CC)ccc2[nH]c1=O	?	>57
CC1Cc2nc(SCC(=O)N3CCOCC3)n(-c3ccccc3)c(=O)c2S1 (centres undefined)	5%	>57
NS(=O)(=O)c1ccc(NC(=O)CSC2=NC(=O)C(c3ccccc3)C(=O)N2)cc1 (centres undefined)	-13%	.
CCC(C)(C)n1c(=O)[nH]c2c(c1=O)CCC2	-8%	>57
CCCCCOC(=O)Cn1c(=O)oc2ccccc21	10%	>57
COCCNC(=O)CCCCCN1C(=O)CCC1=O	3%	>57
COc1ccccc1Oc1ccc(S(=O)(=O)Nc2cccnc2)cc1	-10%	>57
CCc1c(C)nc(SCC(=O)N2CCc3ccccc32)[nH]c1=O	-5%	>57
CC1(C)CC(Nc2ccc(Nc3ccccc3)cc2)CC(C)(C)N1	12%[8 µM]	>57
Cc1cccc(C2CC(c3ccc(F)cc3)Nc3nc(N)nn32)c1 (centres undefined)	8%	>57
O=C(O)c1cccc(Cl)c1Cl	-4%	.
Nc1nc(-c2ccc(Cl)cc2Cl)cn1N	-3%	>57
CCC(=NCc1cccnc1)c1c(O)n(Cc2ccccc2)c(=O)[nH]c1=O	-9%	>57
O=C(NCCCn1ccnc1)c1cc(-c2ccc3c(c2)OCO3)on1	9%	>57

Filtered by structure, the compounds so far containing a tert-butyl group.
SMILES	Anthrax LT inh	Prx2 Sm inh
CC(C)CO/N=C1/C[C@@H](O)[C@@H](O)[C@@H]2[C@@H]3C(=O)N(C(C)(C)C)C(=O)[C@H]3CC[C@H]12	4%[8 µM]	.
CC(C)(C)N1C(=O)c2ccc(C(=O)O)cc2C1=O	-6%	>57

(continued)
SMILES	Anthrax LT inh	Prx2 Sm inh
Cc1c(C(=O)N2CCOCC2)sc2ncnc(N3CCc4ccccc4C3)c12	-2%	>57
O=c1cnc2cnc(Nc3ccccc3)nc2n1Cc1ccc(F)cc1	?	>57
COc1ccc(C(=O)N2CCC3(CCCN(C(=O)Nc4cccc(F)c4)C3)CC2)cc1	?	>57
Nc1nc(-c2nc3ccccc3[nH]2)cs1	7%	>57
COc1ccc(C2CC(=O)c3cnc(NC(=O)c4ccccc4OC)nc3C2)c(OC)c1 (centres undefined)	-13%	>57
CCCn1c(-c2ccc(F)cc2)cnc1SCC(=O)O	-1%	>57
O=C(CSc1ncn[nH]1)Nc1ccccc1C(=O)O	-2%	>57
CC(=O)Nc1ccc(N/C=C/C(=O)c2ccc(C)o2)cc1	-7%	>57
CC(C)CN(CC(C)C)c1nnc(N)s1	0%	>57
CCCn1c(=O)c2ccccc2n2c(SCC(=O)c3cc(C)n(CC4CCCO4)c3C)nnc12 (centres undefined)	4%	>57
CCC(C)NC(=O)N[C@@H](Cc1ccccc1)C(=O)O (some centres undefined)	-8%	>57
CN1CCN(c2ncnc3ccc(-c4ccccc4C#N)cc23)CC1	?	>57
Cc1cccc(NC(=O)CN(C)S(=O)(=O)c2cccc3nsnc23)c1C	-2%	>57
O=C(O)CC(Cc1ccc(Br)cc1)C(=O)O (centres undefined)	-3%	>57
O=C(CSc1nc2ccccc2o1)c1ccc2c(c1)OCCO2	-2%	>57
CC(C)NS(=O)(=O)c1ccc(OCC(=O)NCc2cccnc2)cc1	?	>57
CCOC(=O)c1c(NC(=O)CSc2nnc(-c3cccnc3)n2Cc2ccco2)sc(C)c1C	15%	.
CC(C)CN1CCCC2(CCN(C(=O)c3csnn3)CC2)C1	?	i
COc1ccc(C(NC(N)=O)c2ccccc2)cc1 (centres undefined)	-4%	.
O=C(Nc1cccnc1)c1c(F)cccc1F	13%	>57
COc1ccc(-n2cnnc2SC(C)c2nc3sc(C)c(C)c3c(=O)[nH]2)cc1 (centres undefined)	-7%	>57
Cc1ccc(-c2nnc(SCc3ccccc3F)o2)cc1	?	>57
COc1cccc(Oc2nnnn2-c2ccccc2)c1	-11%	>57
Cc1cccn2c(=O)c3cc(C#N)c(=NC(=O)c4cccnc4)n(CC4CCCO4)c3nc12 (centres undefined)	?	>57
CC(COc1ccccc1)N(CCCl)Cc1ccccc1 (centres undefined)	?	.
CCc1nnc(NC(=O)CSc2nnc(COc3ccccc3)n2-c2ccc(C)cc2)s1	15%	>57
Cc1nc(N2CCN(C(=O)CCC(=O)O)CC2)c2c(C)c(C)sc2n1	?	>57
CC(=O)Nc1ccc2c(c1)CC1(C(=O)N(C)C(=O)N(C)C1=O)C1CCCN21 (centres undefined)	5%	>57
CC[C@@]1(O)C(=O)OCc2c1cc1n(c2=O)Cc2cc3c(NC(=O)CN)cccc3nc2-1	-7%[8 µM]	>57
O=C1c2ccccc2C(O)(Cc2ccccc2)N1C1CCCCC1 (centres undefined)	-5%	>57
Cc1ccc(OC2C(O)COC2/C=C/C#Cc2ccc(C(C)(C)C)cc2)cc1 (centres undefined)	-26%&-3%[8 µM]	.
N[C@@]1(C(=O)O)CCC[C@@H]1C(=O)O	-6%[8 µM]	>57
COC(=O)[C@H](Cc1ccccc1)NC(=O)N1CCCCC1C (some centres undefined)	2%	>57
CCOC(=O)CSc1nnc(Cc2ccccc2)n1Cc1ccco1	7%	>57
O=C(N/C(=N\O)c1ccccc1)Nc1ccc(Cl)cc1	9%	>57
O=S(=O)(NCCSc1ccccc1)c1cccs1	-20%	.
CSc1nnc([C@H](C)NC(=O)OC(C)(C)C)o1	.	>57
Cc1c(NC(=O)CN2CCCc3ccccc32)c(=O)n(-c2ccccc2)n1C	15%	>57

Full records, quoted from the list. Values in the order: Anthrax LT inh	Prx2 Sm inh
Record of CC[C@@]1(O)C(=O)OCc2c1cc1n(c2=O)Cc2cc3c(NC(=O)CN)cccc3nc2-1 → -7%[8 µM]	>57
Record of CCOC(=O)CSc1nnc(Cc2ccccc2)n1Cc1ccco1 → 7%	>57
Record of CC(COc1ccccc1)N(CCCl)Cc1ccccc1 (centres undefined) → ?	.
Record of O=S(=O)(NCCSc1ccccc1)c1cccs1 → -20%	.
Record of CC(=O)Nc1ccc2c(c1)CC1(C(=O)N(C)C(=O)N(C)C1=O)C1CCCN21 (centres undefined) → 5%	>57

Assay outcomes as filed in PubChem.
